# CHT PAM – allosteric activators of human choline transporter CHT; CHT-expressing cells, membrane potential dye, choline EC20; active compounds read high; LV-AA mutant CHT in HEK293 cells; B-score at 10 µM; 0.49% of 310,000 active; AID 488977;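 active = initial fluorescence not abnormally high and integrated response B-score, plate-corrected, over 3 SD above library mean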
# Target sequence (Q9GZV3 whole entry, looked up): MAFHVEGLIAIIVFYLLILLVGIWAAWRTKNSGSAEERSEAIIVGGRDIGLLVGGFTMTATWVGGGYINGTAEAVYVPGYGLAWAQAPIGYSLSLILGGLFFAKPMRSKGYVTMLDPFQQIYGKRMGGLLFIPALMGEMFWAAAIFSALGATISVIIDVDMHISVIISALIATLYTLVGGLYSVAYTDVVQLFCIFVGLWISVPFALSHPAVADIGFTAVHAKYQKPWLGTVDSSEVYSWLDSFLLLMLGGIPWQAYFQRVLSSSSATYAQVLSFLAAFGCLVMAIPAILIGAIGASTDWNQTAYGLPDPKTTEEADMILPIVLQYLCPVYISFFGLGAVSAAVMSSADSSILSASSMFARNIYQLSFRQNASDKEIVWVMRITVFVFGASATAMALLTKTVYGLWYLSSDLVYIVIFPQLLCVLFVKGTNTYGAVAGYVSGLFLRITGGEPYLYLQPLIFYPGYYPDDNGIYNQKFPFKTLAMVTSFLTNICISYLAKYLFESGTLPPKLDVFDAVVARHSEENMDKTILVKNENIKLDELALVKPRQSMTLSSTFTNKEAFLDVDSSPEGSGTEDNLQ
# CHT inh – inhibitors of human choline transporter CHT; Q9GZV3; AID 488975; 0.86% of 310,000 active; CHT-expressing cells, membrane potential dye, choline response; active compounds read low; B-score at 10 µM;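 active = B-score over 3 SD under the library average, and starting fluorescence ratio not unusually high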;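 note: choline stimulus applied at its EC90 after an EC20 pre-addition; B-score computed on integrated fluorescence ratio after choline addition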
# Calls only; i = inactive.
# Start of the listing, in advance, 2 compounds:
entry	canonical_smiles	CHT PAM	CHT inh
1	CS(=O)(=O)N1CCC(C(=O)NCC2CCCO2)CC1 (stereo not given)	i	i
2	COc1ccc(NC(=O)c2noc(C(C)C)c2[N+](=O)[O-])cc1	i	i

# All compounds of this part (from the top)
entry	canonical_smiles	CHT PAM	CHT inh
1	CS(=O)(=O)N1CCC(C(=O)NCC2CCCO2)CC1 (stereo not given)	i	i
2	COc1ccc(NC(=O)c2noc(C(C)C)c2[N+](=O)[O-])cc1	i	i
3	COc1cccc(-c2nc(=S)c3c(n2CCCO)CCCC3)c1	i	i
4	CCCCC(=O)Nc1ccc(NC(=O)c2ccc(C)c([N+](=O)[O-])c2)cc1OC	i	i
5	O=C(N/N=C/C=C/c1ccccc1)c1ccccc1Br	i	i
6	CC(=O)c1ccc(S(=O)(=O)NCc2ccc(C(=O)N(C)CC(=O)Nc3cccc(F)c3)cc2)cc1	i	i
7	CC(=O)NC1C(=O)N=C(SCC(=O)Nc2c(C)cccc2C)NC1=O (stereo not given)	i	i
8	NCCCCCc1cn([C@@H](CO)C(=O)NCCCCCCCCCCC(=O)N2CCNCC2)nn1	i	i
9	Oc1cccc(C2c3[nH]c4ccccc4c3CCN2Cc2ccc3c(c2)CCO3)c1 (stereo not given)	i	i
10	O=C(CCCC(=O)NC1CCCCC1)Nc1ccc([N+](=O)[O-])cc1	i	i

# Reprinted at random: 2 records from the list
entry	canonical_smiles	CHT PAM	CHT inh
6	CC(=O)c1ccc(S(=O)(=O)NCc2ccc(C(=O)N(C)CC(=O)Nc3cccc(F)c3)cc2)cc1	i	i
8	NCCCCCc1cn([C@@H](CO)C(=O)NCCCCCCCCCCC(=O)N2CCNCC2)nn1	i	i

# Other compounds:
entry	canonical_smiles	CHT PAM	CHT inh
11	O=C(Nc1nc(-c2ccccc2)cs1)C1CCCCN1S(=O)(=O)c1ccccc1 (stereo not given)	i	i
12	COc1ccc(Cl)cc1NC(=O)C(C)N1CCN(C/C=C/c2ccccc2)CC1 (stereo not given)	i	i
13	COC(=O)CCC(=O)NNC(=O)c1ccc(Br)cc1	i	i
14	O=C(Nc1sc2c(c1C(=O)O)CCCCC2)c1cccs1	i	i
15	CCc1ccccc1NC(=O)c1ccoc1C	i	i
16	Cc1ccc(S(=O)(=O)N(C)c2cc(S(=O)(=O)N3CCOCC3)c(C)cc2C)cc1	i	i
17	COc1ccc(-c2nnc(SCc3cc(C)ccc3C)n2N)cc1	i	i
18	COc1cc([N+](=O)[O-])ccc1NC(=S)Nc1cccc(C(=O)O)c1	i	i
19	O=S(=O)(Cc1ccco1)Cc1nc(-c2ccc(Cl)cc2)cs1	i	i
20	Cc1cc(C)c2c(N)c(S(=O)(=O)c3ccccc3)sc2n1	i	i
21	c1cc(CNC2=NCCCCC2)ccn1	i	i
22	CCOc1ccc(S(=O)(=O)N2CCN(Cc3ccco3)CC2)cc1	i	i
23	CCN1CCC(N2CCN(c3ccccc3OC)CC2)CC1	i	i
24	Cc1ccc(NC(=O)CCNS(=O)(=O)c2ccc3[nH]c(=O)oc3c2)c(Cl)c1	i	i
25	COc1ccc(OCCn2cc(/C=N/NC(=O)c3ccncc3)c3ccccc32)cc1	i	i
26	COC(=O)[C@H](CCSC)NC(=O)Nc1ccc(C)cc1C	i	i
27	Clc1ccc(OCc2nc(-c3ccc(Br)o3)no2)cc1	i	i
28	CC(C)c1cc(C(=O)N/N=C/C(Br)=C/c2ccccc2)n[nH]1	i	i
29	COc1ccc(CNCC(O)(c2ccc(F)cc2)c2ccc(F)cc2)cc1OC	i	i
30	CC(=O)N1CCN(S(=O)(=O)c2c(C)n(C)c(=O)n(C)c2=O)CC1	i	i
31	Cn1c(=NC(=O)CS(=O)(=O)c2ccc(F)cc2)sc2ccccc21	i	i
32	CCOC(=O)C1C(c2ccc3c(c2)OCO3)NC(=O)NC1(O)C(F)(F)F (stereo not given)	i	i
33	CN(Cc1ccc(Cl)cc1Cl)C(=O)c1cc(=O)c2ccccc2o1	i	i
34	O=C(OCN1C(=O)c2ccccc2C1=O)C1CCCCC1	i	i
35	CCCOc1ccccc1N/C(=N/c1nc(C)cc(C)n1)NC(=O)COc1ccc(OC)cc1	i	i
36	COc1cc2c(cc1OC)C(COc1ccc3c(C)cc(=O)oc3c1)N(C(=O)c1ccco1)CC2 (stereo not given)	i	i
37	CC(C)OC(=O)C1=C(N)N2C(=O)CSC2=C(C(=O)OC(C)C)C1	i	i
38	Cc1ccc(C(=O)NNS(=O)(=O)c2ccc(F)cc2)cc1	i	i
39	CCOc1cc(C2C3=C(CCCC3=O)N(CCC(=O)O)C3=C2C(=O)CCC3)ccc1OS(=O)(=O)c1ccc(C)cc1	i	i
40	CCn1c(N)c(C(=O)NCc2cccnc2)sc1=S	i	i
41	COc1ccc(C(C(=O)NC2CCCCC2)N(C(=O)c2sc(C)nc2C)c2ccccc2C)cc1 (stereo not given)	i	i
42	Cc1ccc(CS(=O)(=O)c2ncn[nH]2)cc1	i	i
43	Cn1c(=O)c2ccccc2n2c(CCl)nnc12	i	i
44	O=C(OCc1nc2ccccc2s1)c1ccccc1O	i	i
45	CCOC(=O)c1ccccc1NC(=O)COC(=O)CSCC(=O)Nc1cc(C)on1	i	i
46	O=C(Nc1cccc([N+](=O)[O-])c1)c1ccc(CN2CCOCC2)cc1	i	i
47	Cc1cccc(NC(=O)c2cnc3scc(C)n3c2=O)c1	i	i
48	O=C(CSc1nnc(-c2ccco2)o1)NCC(=O)c1ccccc1	i	i
49	O=S(=O)(c1ccccc1F)N1CCN(Cc2nc3ccccc3[nH]2)CC1	i	i
50	CCOC(=O)C1CCN(CCC(=O)Nc2ccc(C)cc2)CC1	i	i
51	O=C(Cn1cnc2ccccc21)NCCCN1CCOCC1	i	i
52	CCN(CC)c1ccc(C(=O)N/N=C(\C)c2cccnc2)cc1	i	i
53	CC(=O)Nc1ccc(S(=O)(=O)NCC2CCC(C(=O)N3CCCCCC3)CC2)cc1 (stereo not given)	i	i
54	CC1CC(C)CN(S(=O)(=O)CC23CCC(CC2=O)C3(C)C)C1 (stereo not given)	i	i
55	CCSc1nnc(-c2cccnc2)n1Cc1ccco1	i	i
56	Nn1c(SCc2cccc3ccccc23)nnc1-c1ccco1	i	i
57	Cc1cc(C)c2c(CN3CCC(C)CC3)cc(=O)oc2c1	i	i
58	CC(=O)Nc1ccc(Nc2ccc(N3C(=O)CCCC3=O)cc2[N+](=O)[O-])cc1	i	i
59	C=C(C)[C@@H]1CC=C(C(=O)O)CC1	i	i
60	O=C1c2cccc3c([N+](=O)[O-])ccc(c23)C(=O)N1CCc1ccccn1	i	i

# Continuation.
entry	canonical_smiles	CHT PAM	CHT inh
61	COC(=O)Nc1ccccc1C(=O)N1CCCCC1	i	i
62	CCOc1cc(NC(=S)NCC2CCCO2)c(OCC)cc1NC(=O)c1ccccc1F (stereo not given)	i	i
63	C=CCNC(=S)NCc1ccccc1	i	i
64	Cc1noc(C)c1NC(=O)NC(c1ccccc1)c1ccccc1	i	i
65	CCN(C(=O)c1ccc2c(Cl)c3c(nc2c1)CCC3)c1ccc(C)c(C)c1	i	i
66	COc1ccccc1NC(=O)N1CCCC(CNC(=O)c2ccccc2Cl)C1 (stereo not given)	i	i
67	Cc1ccc(NC(=O)c2sccc2C)cc1[N+](=O)[O-]	i	i
68	Cc1ccc(NC(=O)C2CCN(S(=O)(=O)c3c(C)nn(C)c3C)CC2)c(Cl)c1	i	i
69	O=C(Nc1cc(C(F)(F)F)ccc1Cl)c1ccncc1	i	i
70	COc1ccc(NC(=O)C23CCC(C)(C(=O)O2)C3(C)C)cc1 (stereo not given)	i	i
71	COCCNC(=O)CSc1nc(-c2ccccc2)cs1	i	i
72	Cn1c(NCc2ccco2)nc2c1c(=O)n(Cc1ccc(Br)cc1)c(=O)n2C	i	i
73	COc1ccc(CCNS(=O)(=O)c2cccc(C(=O)O)c2)cc1OC	i	i
74	O=C(Nc1ccc(OC(F)(F)F)cc1)c1ccc2c(c1)no[n+]2[O-]	i	i
75	CN(C)/C=N/NC(=O)c1ccc(Cl)cc1	i	i
76	Nc1ccc2c(c1)C(=O)N(CC1CCCO1)C2=O (stereo not given)	i	i
77	CCOC(=O)c1c(NC(=O)CN2CCCCC2)sc2c1CCC(C=O)=C2Cl	i	i
78	CC(=O)N1CCN(C(=O)C2(NC(=O)Nc3ccc(C)cc3)CCCCC2)CC1	i	i
79	COc1cccc(/C=N/NC(=O)CCc2c(C)n[nH]c2C)c1	i	i
80	Cc1oc2ccccc2c1-c1cn2c(n1)SCC2	i	i
81	O=C(COc1ccc(/C=N/NS(=O)(=O)c2ccccc2)cc1)N1CCOCC1	i	i
82	COc1ccccc1NC(=O)CCN1CC(C)OC(C)C1 (stereo not given)	i	i
83	O=C(/C=C/c1ccccc1)NCCS(=O)(=O)N1CCN(c2ccccc2)CC1	i	i
84	Cc1cccc(C2Nc3ccccc3C(=O)N2c2ccc(F)cc2)n1 (stereo not given)	i	i
85	CCN(CC)C(=O)COc1cc(C)c(Cl)c(C)c1	i	i
86	Cn1cccc1/C=C1\SC(=O)N(c2ccccc2)C1=O	i	i
87	COC(=O)c1ccccc1-n1cccc1C(=O)NP(=O)(N1CCOCC1)N1CCOCC1	i	i
88	O=C(Nc1cccc(F)c1)/C(=C\c1ccco1)NC(=O)c1cccs1	i	i
89	Cc1ccc(C)c(N2CCN(C(=O)c3cc4ccccn4n3)CC2)c1	i	i
90	COc1cc(C(=O)Nc2ccccc2-c2nnn(CC(N)=O)n2)cc(OC)c1OC	i	i
91	O=C(CC(Cc1ccccc1)C(=O)O)Nc1ccccc1 (stereo not given)	i	i
92	CCC(=O)n1nc(-c2ccc(OC)cc2)nc1SC	i	i
93	N#Cc1ccc(NC(=O)Cn2cnc(S(=O)(=O)N3CCCC3)c2)cc1	i	i
94	CSc1ccc(S(=O)(=O)Nc2ccc(OCC(=O)N3CCOCC3)cc2)cc1	i	i
95	COc1ccc(/C=C(\C#N)C(=O)OCC(=O)N(C)C2CCS(=O)(=O)C2)cc1 (stereo not given)	i	i
96	Cc1ccc(S(=O)(=O)/N=C(/c2ccc(F)cc2)N2CCCC2)cc1	i	i
97	Cc1nc(SCC(=O)N2CC(=O)Nc3ccccc32)c2c(C)c(C)sc2n1	i	i
98	CC(SCc1cc(=O)n2c([nH]c3ccccc32)c1C#N)C(=O)O (stereo not given)	i	i
99	CC1c2[nH]c3ccccc3c2C[C@H]2C(=O)N(CCCO)CC(=O)N12 (stereo not given in full)	i	i
100	Cc1onc(C(=O)NC(C)c2ccccc2)c1[N+](=O)[O-] (stereo not given)	i	i
101	CC1(C)CCC(=O)N2CC[C@H]3C[C@H](OC(=O)Nc4ccc5c(c4)OCO5)C[C@@H]1[C@H]32	i	i
102	CN1CCN(C(=S)c2cn(Cc3ccccc3F)c3ccccc23)CC1	i	i
103	CC(=O)c1sc(Nc2nc(C)cc(C)n2)nc1C	i	i
104	CCn1c(=O)n(CC(=O)NCc2ccccc2OC)c(=O)c2ccccc21	i	i
105	CN(c1ccccc1)S(=O)(=O)c1ccc(C(=O)Nc2nnc(C3CC3)o2)cc1	i	i
106	CCC1=NC(c2ccccc2OC)N(O)C1(C)C (stereo not given)	i	i
107	CCC(C)(C)NC(=O)C(c1ccccc1Cl)N(C(=O)CCC(=O)Nc1cc(C)on1)c1ccc(NC(C)=O)cc1 (stereo not given)	i	i
108	O=C(CCCNS(=O)(=O)c1cccc2nsnc12)NCCc1ccccc1	i	i
109	FC(F)Oc1ccc(NC(=S)NCc2ccco2)cc1Cl	i	i
110	O=S(=O)(c1ccc(F)cc1)N1CCCNCC1	i	i

# Compound profiles, as listed above. Order of screens: CHT PAM	CHT inh
# O=C(CCCNS(=O)(=O)c1cccc2nsnc12)NCCc1ccccc1 is listed with i	i
# CN(c1ccccc1)S(=O)(=O)c1ccc(C(=O)Nc2nnc(C3CC3)o2)cc1 is listed with i	i
# CC1(C)CCC(=O)N2CC[C@H]3C[C@H](OC(=O)Nc4ccc5c(c4)OCO5)C[C@@H]1[C@H]32 is listed with i	i
# FC(F)Oc1ccc(NC(=S)NCc2ccco2)cc1Cl is listed with i	i
# CC(=O)c1sc(Nc2nc(C)cc(C)n2)nc1C is listed with i	i

# Later entries.
entry	canonical_smiles	CHT PAM	CHT inh
111	CN1CCN(/C=N/C2=C(C#N)C(c3ccccc3)C3=C(CC(C)(C)CC3=O)O2)CC1 (stereo not given)	i	i
112	CCCCCn1nc(C(=O)N(CCOC)c2c(N)n(CCCC)c(=O)[nH]c2=O)c2ccccc2c1=O	i	i
113	CCC(=O)Nc1ccccc1C(=O)OCC(=O)Nc1ccc(S(N)(=O)=O)cc1	i	i
114	Cn1c(=O)[nH]c(=O)c2c1nc(N(CCO)Cc1ccccc1)n2CCCc1ccccc1	i	i
115	Cc1noc(/C=C/N(C)C)c1S(=O)(=O)N1CCN(c2ccc(F)cc2)CC1	i	i
116	Cc1cc(NC(=O)COC(=O)c2cccc(OCc3ccccc3)c2)no1	i	i
117	COCCCn1c(C)cc(C(=O)COC(=O)CCc2nc3ccccc3c(=O)[nH]2)c1C	i	i
118	COC(=O)C12CCC(C)(c3nc4ccccc4nc31)C2(C)C (stereo not given)	i	i
119	Cc1ccc(S(=O)(=O)N(CC(=O)Nc2ccccc2-c2ccccc2)c2ccc(C)cc2C)cc1	i	i
120	CCOCCn1ccc2c(OCC(=O)Nc3ccccc3OC)cccc2c1=O	i	i
121	CC1=C(C/C=C(\C)CCCC(C)CCCC(C)CCCC(C)C)C(=O)c2ccccc2C1=O (stereo not given)	i	i
122	COc1ccc(N2C(=NC(=O)C3CCCCC3)SC3CS(=O)(=O)CC32)cc1OC (stereo not given)	i	i
123	COC(=O)C1=C(N)Oc2cc(C)oc(=O)c2C1c1cccnc1 (stereo not given)	i	i
124	O=C1NC(=S)N/C1=C/c1cccc([N+](=O)[O-])c1	i	i
125	CC(OC(=O)c1ccccc1NCCO)C(=O)NCC(=O)Nc1ccc(F)c(F)c1F (stereo not given)	i	i
126	Cc1cc(C(F)F)nn1CC(=O)NCc1ccc(Cl)cc1Cl	i	i
127	COC(=O)CCC(=O)c1ccc(OC)c(Cl)c1	i	i
128	O=c1c2ccccc2nc(-c2ccco2)n1CCc1ccc(O)cc1	i	i

# Assay outcomes (PubChem BioAssay)

# An excerpt, and most or all hits are left out here.
